From PubChem
VDR inh – blocks the human vitamin D receptor; VDR-SRC2-3 peptide fluorescence polarization, 2 h; P11473; Potency, µM, for the others: max response, negative = inhibition, usual class: inhibitors; hit rate 0.93% among 400,000; active = well fitted inhibition curve with a large enough effect; inconclusive = small, poorly fitted or top-dose-only effect, or another doubt; inactive = no such curve, though single readings can be large or run the other way; also: series mostly up to about 120 µM
Target sequence (P11473 whole entry, looked up): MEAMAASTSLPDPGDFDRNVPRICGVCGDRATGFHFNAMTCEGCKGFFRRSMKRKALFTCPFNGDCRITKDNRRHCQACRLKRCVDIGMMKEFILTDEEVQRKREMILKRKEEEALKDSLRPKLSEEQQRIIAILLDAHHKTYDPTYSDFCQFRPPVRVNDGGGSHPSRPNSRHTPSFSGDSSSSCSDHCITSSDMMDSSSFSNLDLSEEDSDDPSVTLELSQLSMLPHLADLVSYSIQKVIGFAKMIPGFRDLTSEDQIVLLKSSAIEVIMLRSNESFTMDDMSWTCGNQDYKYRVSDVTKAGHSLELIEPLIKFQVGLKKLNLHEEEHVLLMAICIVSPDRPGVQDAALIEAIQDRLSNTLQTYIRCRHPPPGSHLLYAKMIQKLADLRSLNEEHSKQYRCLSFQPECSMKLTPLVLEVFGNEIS
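Signal is fluorescence polarization, reporting how far test compounds block the interaction of VDR with the SRC2-3 coregulator peptide after a 2 h room-temperature incubation.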
* hit, by the source's call; ? = inconclusive; & = joins results of further samples; [ ] = remark or other dose. % is scaled to controls: 0 for no effect and ±100 for the full control effect; potency is read from the fitted curve at half-maximal effect. These rows are one share of the data; the hit share may differ from the screen's.

No. | mol | VDR inh
1 | Cc1cnc(C(=O)OCC(=O)c2ccc[nH]2)cn1 | -18%
2 | COC(=O)c1ccc(NC(=O)C(=O)NCCc2csc3nc(-c4ccccc4F)nn23)cc1 | 19%
3 | CC(C)(C)c1ccc(C(=O)N2CCN(Cc3ccccc3)CC2)cc1 | 16%
4 | Cc1noc(C)c1COC(=O)c1cccnc1Cl | -15%
5 | CCOC(=O)c1cccc(NC(=O)c2cnccn2)c1 | 10%
6 | O=C(COc1ccccc1)NCCSc1ccccc1 | -1%
7 | COc1ccc(C2NCCc3sccc32)cc1 (stereo not drawn) | -6%
8 | C[C@H](CO)N1C[C@H](C)[C@@H](CN(C)C(=O)Nc2ccc(C(F)(F)F)cc2)Oc2ccc(NC(=O)c3ccncc3)cc2C1=O | 0%
9 | O=C(C[n+]1ccc(C(=O)c2ccccc2)cc1)Nc1ccccc1OC(F)F | -12%
10 | O=C(Cc1cccc(NC(=O)C2CCCN(C(=O)C3CCC3)C2)c1)Nc1ccc(C(=O)N2CCOCC2)cc1 (stereo not drawn) | -9%
11 | CCN(CC(=O)Nc1ccc(NC(C)=O)cc1)C(=O)CCCSc1nc2ccccc2[nH]1 | ?
12 | COc1ccc2c(Cl)c(C(N)=O)sc2c1 | -11%
13 | COCCNC(=O)C(c1ccco1)N(C(=O)Cn1nnc2ccccc21)c1cccc(C)c1C (stereo not drawn) | -1%
14 | CC(=O)Nc1ccc(/C=C/c2nc(-c3ccccc3O)n[nH]2)cc1 | 2%
15 | Cc1noc(C)c1COC(=O)C1CCN(C(=O)c2ccc(Cl)cc2)CC1 | 16%
16 | Cc1ccc2oc(-c3cc(NC(=O)c4cccs4)cc(C)c3O)nc2c1 | 8%
17 | Cc1cccc(OCC(=O)Nc2ccc(C(=O)c3ccc(C(=O)O)cc3)cc2)c1 | 4%
18 | COc1ccccc1NC(=O)CCNS(=O)(=O)c1ccc2c(c1)CC(C)N2C(=O)C1CC1 (stereo not drawn) | -8%
19 | CCO[C@@H]1OC(C(=O)N2CCN(Cc3ccc4c(c3)OCO4)CC2)=C[C@H](C)[C@H]1CCCO | -22%
20 | CCSc1nc2sc3c(c2c(=O)n1CC)CC(C)(C)OC3 | -13%

(cont.)
No. | mol | VDR inh
21 | O=C(COc1ccccc1-c1ccccc1)NCc1cccc(Cl)c1 | -6%
22 | O=S(=O)(Nc1ccc2c(c1)OCCO2)c1ccc(F)cc1 | 0%
23 | CCOc1ccc(Br)cc1S(=O)(=O)Nc1nc(CN2CCOCC2)nc2sc(C)c(C)c12 | -13%
24 | Cc1oc(C(=O)O)cc1COc1ccc2c3c(c(=O)oc2c1)CCC3 | -5%
25 | O=C(C1COc2ccccc2O1)N1CCN(c2ccccn2)CC1 (stereo not drawn) | 11%
26 | CC1CCCCN1CCCNC(=O)C1CCN(c2nnc(-n3cccc3)s2)CC1 (stereo not drawn) | -26%
27 | O=C(CSc1nc2c(c(=O)[nH]1)CN(Cc1ccc3c(c1)OCO3)CC2)Nc1cc(F)ccc1F | 3%
28 | Nc1nnc2c(C(F)(F)F)nc3ccccc3n12 | 16%
29 | C/C=C/C(=O)Nc1cccc(C(F)(F)F)c1 | -9%
30 | COc1ccccc1NC(=O)C(C)OC(=O)C1CCN(S(=O)(=O)c2ccc(C)c(C)c2)CC1 (stereo not drawn) | -25%
31 | CSCCC(Nc1ncnc2ccc(Br)cc12)C(=O)O (stereo not drawn) | 12%
32 | COc1ccc(C2c3cc(OC)c(OC)cc3CCN2C(=O)c2cccc([N+](=O)[O-])c2)cc1OC (stereo not drawn) | -10%
33 | Nc1ncc(O)c(N)n1 | -1%
34 | CC(=O)N1c2ccc(S(=O)(=O)N3CCC(C(=O)N4CCCCC4)CC3)cc2CC1C (stereo not drawn) | 1%
35 | CCCCn1nnnc1SCC(=O)Nc1sc2c(c1C#N)CCCC2 | -2%
36 | Cc1noc(Cn2c(=O)c3ccccc3n(CC(=O)Nc3cccc(Cl)c3C)c2=O)n1 | 2%
37 | Brc1ccc(-c2nnc3sc(CN4CCN(c5ccccc5)CC4)cn23)cc1 | -3%
38 | O=C1NC(=S)S/C1=C\c1ccc(SCc2ccccc2)o1 | ?
39 | CN(CC(=O)Nc1ccccc1Cl)C(=O)COC(=O)/C=C/c1ccc(C(F)(F)F)cc1 | 12%
40 | O=C(Cn1cnc2c(OCc3ccccc3)ncnc21)NCCCN1CCCC1=O | 8%

Carrying on:
No. | mol | VDR inh
41 | CCOC(=O)c1ccc(NC(=O)CSc2ncccn2)cc1 | -5%
42 | Cn1cccc1C(=O)N1CCC2(CCCN(Cc3ccc(C#N)cc3)C2)CC1 | ?
43 | Cc1onc(-c2ccccc2Cl)c1C(=O)Nc1ncn[nH]1 | 6%
44 | COc1ccccc1NOC(=O)CCOc1ccccc1 | 10%
45 | CCc1noc(C)c1C(=O)Nc1nc(-c2cc(C)ccc2C)c(C)s1 | 37%[activator]
46 | Cc1c(O)ccoc1=O | -2%
47 | Cc1ccc(-n2c(COCC(=O)O)nc3cccnc32)cc1 | 11%
48 | Cc1nc(SCC(=O)N(C)C2CCS(=O)(=O)C2)c2ccccc2n1 (stereo not drawn) | 30%[activator]
49 | C=CCNC(=O)C1CC(=O)N(c2ccc(OCC(=O)Nc3c(C)cccc3C)cc2)C1 (stereo not drawn) | 9%
50 | O=C(O)c1cnccn1 | 0%
51 | Cn1cc(C(=O)c2ccc(Cl)cc2Cl)cc1C(=O)N/N=C(\N)COc1ccc(Cl)cc1 | -15%
52 | Cc1ccccc1N1C(=O)CC(Sc2nnc(-c3ccccc3)o2)C1=O (stereo not drawn) | -11%
53 | COc1ccc(OC)c(-c2c3cc(O)c(=O)cc-3oc3cc(O)c(O)cc23)c1 | 25µM*
54 | CC[C@]1(C(=O)OC)[C@H]2C(=O)N(Cc3ccccc3)C(=O)[C@H]2[C@H]2CN=C(SC)N21 | 1%
55 | COc1ccc2oc(C)c(C(=O)c3ccccc3)c2c1 | 17%
56 | COc1cc(/C=N/N=C2/NC(=O)C(CC(=O)O)S2)ccc1OCc1ccc(Cl)cc1 (stereo not drawn) | -26%
57 | COC(=O)C1CCN(C(=O)c2c(-c3ccccc3Cl)noc2C)CC1 | -6%
58 | COC(=O)c1ccccc1NC(=O)CN1CCOCC1 | 5%
59 | Cc1ccccc1C(=O)NNC(=O)CSc1nc(-c2ccccc2)cc(=O)[nH]1 | -14%
60 | O=C(O)CSCC(=O)c1ccccc1 | 2%

Looked up above.
Value for #47 under VDR inh: 11%
Value for #43 under VDR inh: 6%
Value for #55 under VDR inh: 17%
Value for #60 under VDR inh: 2%

(cont.)
item	Compound	VDR inh
61	Cc1cc(/C=C(\C#N)C(=O)O)c(C)n1C1CC1	-20%
62	CCSc1nnc(NC(=O)CSc2nc3c(c(=O)n2-c2ccccc2OC)SCC3)s1	-4%
63	OC(COc1ccc2ccccc2c1)CN1CCN(c2ccc(F)cc2)CC1 (stereo not drawn)	7%
64	O=C1CN(C(=O)COC(=O)/C=C/c2ccco2)c2ccccc2N1	-9%
65	COc1ccc(C(C(=O)NC2CCCC2)N(CC2CCCO2)C(=O)Cn2nnc(-c3ccc(C)o3)n2)cc1 (stereo not drawn)	7%
66	COc1ccc(N(C(=O)c2ccco2)C(C(=O)NC2CCCC2)c2cccnc2)c(OC)c1 (stereo not drawn)	9%
67	CS(=O)(=O)N1CCN(c2ccc(NC(=S)NC(=O)c3cccs3)cc2)CC1	-2%
68	COc1ccc(CN(C)C(=O)/C=C/c2ccc(S(=O)(=O)N3CCCCCC3)cc2)cc1	-8%

More results follow.
item	Compound	VDR inh
69	O=c1[nH]c(NCc2ccccc2)nc2c1CCCC2	-4%
70	Cc1n[nH]c(C)c1CCCCOc1ccccc1F	0%
71	CCc1cccc(NC(=S)Nc2ccc(CN3CCOCC3)cc2)c1	23%
72	COc1ccc(C(O)P(=O)(OCC(C)C)OCC(C)C)c(OC)c1 (stereo not drawn)	-4%
73	O=C(CN(c1ccc2c(c1)OCCO2)S(=O)(=O)c1ccccc1)N1CCN(Cc2ccccc2)CC1	-9%
74	COc1cc(Cl)c(S(=O)(=O)N2CCCC2)cc1Cl	1%
75	O=C(Nc1ccc2c(c1)OCO2)c1c(F)c(F)c(F)c(F)c1F	-16%
76	COc1ccc(CNC(=O)c2ccc(NC(=O)N3CC4CCCN4c4ccccc43)cc2)cc1 (stereo not drawn)	7%

Other results follow:
item	Compound	VDR inh
77	CCc1ccc(NC(=O)N(Cc2cn(CC)c3ccccc23)C2CCCCC2)cc1	5%
78	CCOc1ccc(NC(=O)CN2CCCC2c2cccs2)cc1S(=O)(=O)N1CCCCC1 (stereo not drawn)	?
79	O=C(Nc1ccc([N+](=O)[O-])cc1)Nc1ccc2c(c1)OCCO2	-2%
80	CCN(c1cccc(C)c1)S(=O)(=O)c1ccc2c3c(cccc13)C(=O)N2	-7%
81	NS(=O)(=O)c1cc2c(cc1Cl)NC=NS2(=O)=O	8%&-18%&-3%&4%
82	NS(=O)(=O)c1ccc(NC(=O)CCn2c(=O)oc3ccccc32)cc1	-8%
83	COc1ccc(NC(=O)COC(=O)c2cc(SC)ccc2Cl)c(OC)c1	-1%
84	COc1ccccc1OC(C)C(=O)NNC(=S)NC1CCCC1 (stereo not drawn)	7%

More compounds
item	Compound	VDR inh
85	O=C(CSc1ccccn1)N/N=C/c1cccc([N+](=O)[O-])c1	5%
86	CN(c1ccc(C(=O)N2CCN(Cc3ccccc3)CC2)cc1)S(=O)(=O)c1ccccc1	5%
87	O=C(Cn1ncn2c(cc3ccccc32)c1=O)NCc1ccc(F)cc1	-10%
88	Cc1cc(C)n2nc(/C(C#N)=C/c3ccccn3)c(C#N)c2n1	20µM*
89	CCCCSCCCNC(=O)Nc1ccc(CC)cc1	-17%
90	COc1cccc(OC(=O)c2ccccc2)c1OC(=O)c1ccccc1	-16%
91	Cc1ccc2[nH]c3c(c2c1)CN(C(=O)CN1c2ccc(F)cc2CCC1C)CC3 (stereo not drawn)	32%
92	O=C(Oc1ccc(Cl)cc1)c1cc(-c2ccc3c(c2)OCCO3)on1	2%

3 of the entries above in order of their number in VDR inh, smallest number first.
item	Compound	VDR inh
21	O=C(COc1ccccc1-c1ccccc1)NCc1cccc(Cl)c1	-6%
14	CC(=O)Nc1ccc(/C=C/c2nc(-c3ccccc3O)n[nH]2)cc1	2%
85	O=C(CSc1ccccn1)N/N=C/c1cccc([N+](=O)[O-])c1	5%

Additional compounds follow:
item	Compound	VDR inh
93	Cc1cc(-n2c(C)cc(C(=O)CSc3nnnn3-c3ccc(Cl)cc3)c2C)no1	7%
94	CCOC(=O)C1CCN(C/C=C/c2ccccc2[N+](=O)[O-])CC1	-6%
95	O=C(COC(=O)c1ccccn1)Nc1cccc(Cl)c1	-10%
96	Cc1nn(-c2ccccc2)c(Cl)c1/C=C1\SC(=S)N(CCCCCC(=O)O)C1=O	?
97	CCS(=O)(=O)c1ccc2c(c1)NC(=O)C(CCO)O2 (stereo not drawn)	-9%
98	Cc1ccc(NC(=O)C2CC(=O)n3ncnc3N2)cc1 (stereo not drawn)	5%
99	CCCS(=O)(=O)c1nc(S(=O)(=O)c2ccc(C)cc2)c(NCCCN(C)C)s1	5%
100	Nc1ccc(O)cc1	79µM*

Continuation.
item	Compound	VDR inh
101	C/C(=N\NC(=S)NC(C)C)c1ccco1	-11%
102	COc1ccccc1CN(C)C(=O)c1ccccc1Sc1ccccc1C#N	-15%
103	Cc1c(CC(=O)O)c(=O)oc2cc(OCc3nn[nH]n3)ccc12	7%
104	COc1ccc(NS(=O)(=O)c2nnc(NC(=O)c3ccccc3F)s2)cc1	19%&1%
105	CCCCOC(=O)/C(=C/c1cn(C)c2ccccc12)NC(=O)c1ccc(OC)cc1	-22%
106	CCN(CC)CCC(C)OC(c1ccccc1)c1ccccc1 (stereo not drawn)	8%
107	Cc1n[nH]c(C)c1N=Nc1cc(Cl)ccc1Cl	3%
108	O=C1NN(c2ccccc2)C(=O)/C1=C\c1ccc2c(c1)OCO2	-10%

Next section; it opens with the 5 that closed the last part.
item	Compound	VDR inh
104	COc1ccc(NS(=O)(=O)c2nnc(NC(=O)c3ccccc3F)s2)cc1	19%&1%
105	CCCCOC(=O)/C(=C/c1cn(C)c2ccccc12)NC(=O)c1ccc(OC)cc1	-22%
106	CCN(CC)CCC(C)OC(c1ccccc1)c1ccccc1 (stereo not drawn)	8%
107	Cc1n[nH]c(C)c1N=Nc1cc(Cl)ccc1Cl	3%
108	O=C1NN(c2ccccc2)C(=O)/C1=C\c1ccc2c(c1)OCO2	-10%
109	CCCCS(=O)c1snnc1C (stereo not drawn)	?
110	O=C(Cc1c(F)cccc1Cl)OCC(=O)c1ccc[nH]1	-5%
111	COC(=O)[C@H](CC(C)C)N1Cc2cc(OC)cc(OC)c2-c2ccccc2S1(=O)=O	-20%
112	CCOc1ccc2nc(SCC(=O)Nc3ccc4[nH]c(=O)[nH]c4c3)[nH]c2c1	-19%
113	NNC(=O)c1oc2nc(-c3ccc(Cl)cc3)cc(-c3ccccc3)c2c1N	-10%
114	CCOc1c(Br)cc(C(=O)N2CCCN(C)CC2)cc1OC	-15%
115	Cc1ccc2occ(CC(=O)Nc3ccc(S(N)(=O)=O)cc3)c2c1	2%
116	CN(C)S(=O)(=O)c1ccc2c(c1)nc(CCC(=O)O)n2C	14%

Following part.
item	Compound	VDR inh
117	CCN1C(=O)[C@H]2[C@@H](c3ccc(C)cc3)N3C(=O)N(c4cccc(Br)c4)C(=O)[C@@]3(Cc3ccccc3)[C@H]2C1=O	-9%
118	Cc1ccc2c(c1)-c1onc(C(=O)N(C)c3cccc(C(F)(F)F)c3)c1CO2	3%
119	[O-][n+]1ccc(C2CC2)cc1	-11%
120	COc1cccc(-c2nc(NCCN3CCOCC3)c3ccccc3n2)c1	-9%
121	CC1CC(C)CN(C(=O)CSc2nnc3ccccn23)C1 (stereo not drawn)	-14%
122	CC(CCc1ccccc1)NC(=O)CCc1cn(C)c2ccccc12 (stereo not drawn)	7%
123	O=c1oc2cc(O)ccc2c2ccccc12	10%
124	CS(=O)(=O)Nc1cccc(-c2ccc3ncnc(NCc4cccs4)c3c2)c1	1%
125	CCC(=O)NCCc1nc2cc(NC(=O)c3cccs3)ccc2n1C	-4%
